Screens: PubChem BioAssay, several laboratories
Beta cell apopt: blocks beta cell apoptosis | protection from apoptosis, % (no concentration beside the values) | 300,000 compounds, 0.8% hits | AID 435005 | INS-1E cytokine-induced death, ATP luminescence, 48 h; percent of positive-control rescue, neutral wells zero;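 active means all replicates at 75% or more, or half of them and the mean; inconclusive means half reach 75% but not the mean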;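 further: 0% = cytokine-treated negative control wells and 100% = positive control rescue; higher means more ATP so stronger rescue from cytokine killing; wells of about 40 µL received 100 nL stock; the first replicate is given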
T cruzi repl: T. cruzi replication inhibition | inhibition, % (test concentration not listed) | 300,000 compounds, 1.4% hits | T. cruzi beta-gal in NIH3T3, luminescence, 90 h | AID 1885;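 active means mean inhibition across valid replicates above about 55%, limit read from the data; inconclusive means mean below that limit but half or more replicates reach it; inactive means mean below it, under half of replicates reach it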;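 further: signal also drops with host cell toxicity which is not excluded here; 0% = plate median of DMSO wells and 100% = zero luminescence signal; higher percent means less beta-gal luminescence so fewer parasites; stock transfer was 50 nL into about 50 µL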
LANA-H2B inh: blocks KSHV LANA binding to histone H2A/H2B; cell-free LANA-H2A/H2B peptide, fluorescence polarization; 320,000 compounds, 0.6% hits; inhibition, % (no concentration beside the values); in the data active means inhibition mostly above about 10%, no sharp cut-off; inactive means mostly below about 6.7%;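 further: stock transfer was 7.5 nL into about 10 µL; 0% = median of vehicle wells and 100% = median of positive control wells; one replicate is shown; the record names a cut of 25% in any replicate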
AF4-AF9 inh: MLL-AF4/AF9 protein interaction inhibition | P42568 | 350,000 compounds, 0.47% hits | inhibition, % at 10 µM | AlphaScreen, biotin-AF4 peptide binding to FLAG-AF9;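 active means every replicate reaching a set inhibition limit, whatever the replicate mean, cut at about 25% in these data; inconclusive means mean inhibition reaches that limit but some replicates miss it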;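 further: 0% = plate neutral control median and 100% = total signal loss; the record names both 10 and 1 µM as test concentration; the first replicate is given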
Target sequence (P42568 whole entry, looked up): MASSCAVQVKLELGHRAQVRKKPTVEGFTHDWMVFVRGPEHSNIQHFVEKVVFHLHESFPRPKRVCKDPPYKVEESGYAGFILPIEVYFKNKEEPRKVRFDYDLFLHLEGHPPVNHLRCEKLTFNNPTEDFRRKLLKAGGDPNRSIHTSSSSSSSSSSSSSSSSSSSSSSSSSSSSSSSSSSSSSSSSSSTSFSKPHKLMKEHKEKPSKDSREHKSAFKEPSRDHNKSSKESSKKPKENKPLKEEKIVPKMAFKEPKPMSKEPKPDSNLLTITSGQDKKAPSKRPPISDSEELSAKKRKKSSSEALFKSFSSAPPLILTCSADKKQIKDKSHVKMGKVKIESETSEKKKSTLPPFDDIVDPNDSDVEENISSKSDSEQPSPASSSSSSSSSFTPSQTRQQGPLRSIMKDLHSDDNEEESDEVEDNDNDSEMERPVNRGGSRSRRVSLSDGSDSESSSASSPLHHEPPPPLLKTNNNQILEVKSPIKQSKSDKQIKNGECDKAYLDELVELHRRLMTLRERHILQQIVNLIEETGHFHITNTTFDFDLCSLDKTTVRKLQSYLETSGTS
Vif TR-FRET: inhibitors of Vif binding to APOBEC3G peptide, primary screen, biochemical, TR-FRET, GST-Vif 1-94, biotin-A3G peptide, dose response retest (AID 1117319); 260,000 compounds, 0.57% hits; inhibition, %; hits with a dose series show IC50 in µM; TR-FRET GST-Vif / biotin-A3G peptide binding; higher % means a stronger effect; test concentration not given here; strong numbers were not always called active;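 active means above the screen mean plus three standard deviations and confirmed in dose response; inconclusive means results disagree or hit not tested in dose response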;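 further: Vif residues 1-94 fused to GST binding biotinylated APOBEC3G peptide 110-148; 0% = full assay without inhibitor and 100% = GST in place of GST-Vif; retest series ran down from 100 µM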
RanGTP-Imp inh: inhibitors of RanGTP-importin-beta interaction, primary screen, biochemical, FRET, CFP-Ran, YFP-importin-beta, homogeneous; 300,000 compounds, 1.1% hits; inhibition, % (concentration not given with the values); cell-free CFP-Ran/YFP-importin-beta FRET ratio;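 active means most replicates above 15%; inconclusive means exactly half above 15%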;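 further: 0% = DMSO wells and 100% = Ran loaded with GDP instead of GTP; wells of about 40 µL received 100 nL stock; the first replicate is given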
Bfl-1 A1 inh: inhibitors of the anti-apoptotic protein A1, read as caspase activation | MEF A1-2A-BIM cells, Caspase-Glo 3/7 luminescence, 3 h; percent of clofoctol response, vehicle zero | caspase activation, % (no concentration beside the values) | 330,000 compounds, 0.066% hits | AID 2462;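 active means over half of replicate activation scores above 10%, or exactly half above 10 with the replicate mean above 10; inconclusive means replicate mean below 10 yet half the replicates above 10; inactive means over half of replicates below 10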;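 further: wells of about 30 µL received 50 nL stock; many hits fall short of the cut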
Calb FLC: affects C. albicans growth with fluconazole; growth inhibition, % (no concentration beside the values); AID 1979; C. albicans CaCi-2 (fluconazole-resistant clinical isolate) + fluconazole, Alamar Blue growth, 48 h; 300,000 compounds, 0.57% hits;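 active means most replicates above 75%; inconclusive means exactly half above 75%; inactive means most below 75%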;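 further: all wells also contain fluconazole at 8 µg/ml as a sub-toxic cotreatment; 0% = median of DMSO wells and 100% = median of geldanamycin control wells; wells of about 8 µL received 7.5 nL stock; the first replicate is given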
* = called active by the depositor; u = inconclusive; x = not tested or not shown; & = joins results of further samples.

SMILES	Beta cell apopt	T cruzi repl	LANA-H2B inh	AF4-AF9 inh	Vif TR-FRET	RanGTP-Imp inh	Bfl-1 A1 inh	Calb FLC
CN(Cc1ccc(-n2cccn2)cc1)Cc1nc(-c2cnccn2)no1	1	-15	-1.7	0.9	-11%	3.0	1.3	u
COc1ccc(OC)c(S(=O)(=O)NCCOC23CC4CC(CC(C4)C2)C3)c1	0	20	0.5	9.3	-3%	3.7	1.0	2
COc1cc(OC)cc(C(=O)NC(=S)NNC(=O)c2cnccn2)c1	85*	36	-2.6	-8.1	x	-0.8	0.0	-3
COc1ccc(N(CC(=O)Nc2cccc3ccccc23)S(C)(=O)=O)c(OC)c1	x	-7	4.6	1.9	x	-0.5	1.3	-5
Cc1ccc(NS(=O)(=O)c2ccc(C(=O)OCC(=O)N3CCCCC3)cc2)cc1	-12	x	0.6	0.1	x	x	-0.2	x
Cc1csc(=O)n1CC(=O)OCC(=O)NCc1ccccc1	-5	-9	-3.4	-1.0	3%	0.2	0.0	-3
COc1ccc(N2CCN(CC(O)COC(c3ccc(F)cc3)c3ccc(F)cc3)CC2)cc1 (stereo not given)	-6	31	2.4	27*	-2%	6.0	0.0	-2
COc1cc(C(=O)NCc2nnc(SCC(=O)N3CCC(C)CC3)o2)cc(OC)c1OC	4	-7	6.6	x	23%&-4%	0.9	0.5	-3
CC(=O)c1ccc(C(=O)N2CCCC(C(=O)c3cc(F)ccc3F)C2)s1 (stereo not given)	-2	-3	-0.4	1.3	x	1.6	1.9	1
COc1ccc(NC(=S)N2CCCC2)c(OC)c1	-6	-5	4.3	0.3	5%	1.4	-0.5	-2
Cc1ccc(SC[C@H](Cc2ccccc2)N2CC[C@@H](NC(=O)OCc3ccccc3)CCC2=O)cc1	6	31	2.6	x	x	0.6	0.0	1
CC(=O)c1ccc(N2CCN(C(=O)c3n[nH]c4ccccc34)CC2)cc1	-1	5	-3.0	1.6	-15%	-4.2	-0.1	9
Cc1ccc(Oc2nc3ccccc3n3c(C)nnc23)cc1	1	-6	2.5	x	2%	2.4	0.9	36
O=C1N/C(=C/c2ccc(Br)cc2)C(O)=C1C=NCc1ccccc1	-7	-15	1.2	-3.9	-7%	1.0	-0.4	-3
O=C(c1cc2nc(-c3cccs3)cc(C(F)(F)Cl)n2n1)N1CCCc2ccccc21	2	25	-1.9	x	5%	3.8	-0.9	-5
Cc1noc(C)c1C(=O)OCC(=O)C12CC3CC(CC(C3)C1)C2	2	5	2.3	-2.7	-5%	1.8	1.0	-31
c1ccc(CCN2CN=C(Nc3nc4ccccc4s3)NC2)cc1	-8	5	-1.4	3.6	2%	6.2	-0.4	-3
COc1ccc(C(=O)Oc2ccc(N(C)S(=O)(=O)c3ccccc3)cc2)cc1[N+](=O)[O-]	3	-14	-0.5	5.0	x	11	-0.9	-6
CCCSc1nc2c(cnn2-c2ccccc2)c(=O)n1N	4	-4	1.2	-2.1	-11%	-5.7	-5.5	-10
CC1CCC2C(=O)N(c3ccc(C(=O)NCc4ccccc4)cc3)C(=O)C2C1 (stereo not given)	-1	-7	0.7	x	-8%	1.9	-0.3	8
O=C(O)CCCC(=O)Nc1ccc(N=Nc2ccccc2)cc1	-3	-23	0.7	1.0	2%	u	-1.2	-8
CCOc1ncccc1C(=O)OCC(=O)NC1CCCCC1	1	x	-1.1	0.8	x	x	0.3	x
COc1cc(CNCc2cccnc2)ccc1OCC(=O)NC1CCCCC1	-7	18	2.3	-5.1	-1%	2.2	1.2	23
CCCNC(=O)C(Cc1ccc(I)cc1)NC(=O)c1ccc(C#N)cc1 (stereo not given)	-5	x	0.2	-7.2	x	x	u	x
O=C(NCCN1CCCCC1)Nc1ccc(F)cc1F	-1	-21	-3.0	-0.7	x	-1.0	-0.3	-4
CCC(C)(C)NC(=O)C(c1ccc(F)cc1)N(Cc1ccco1)C(=O)c1cnccn1 (stereo not given)	-6	-5	3.3	x	43%	2.5	0.9	14
Cc1ccc(C)c(OCC(=O)NCC(C)C)c1C	-4	-13	-1.8	-9.5	-2%	-2.5	0.0	2
O=C(CSC1=NCCS1)Nc1ccccc1F	-4	0	-8.0	x	17%	-3.9	-0.5	u
C#CCOCCOCCOCCNc1nc(N2CCN(C(=O)CCCCCCCCCCNC(=O)Cn3cc(C[C@@H](C)O)nn3)CC2)nc(N2CCN(C(=O)CCCCCCCCCCNC(=O)[C@H](CO)n3cc(CCCSC)nn3)CC2)n1	-9	x	-3.3	-0.2	x	x	0.1	x
CCOC(=O)N1CCN(C/C(C)=C/c2ccccc2)CC1	-4	4	3.7	x	5%	x	0.6	15
COc1cc(/C=C/C(=O)OCC(=O)Nc2c(C)n(C)n(-c3ccccc3)c2=O)ccc1O	-5	-4	4.3	-1.2	1%	-0.8	-0.6	32
O=C(COC(=O)C1CCCN1C(=O)c1cccs1)Nc1ccc2c(c1)OCO2 (stereo not given)	-5	-2	0.2	x	6%	-1.7	-0.3	2
COc1ccc(-c2nc(-n3c(C)c(C(C)=O)c(C(C)=O)c3C)sc2C)cc1OC	-1	-9	-8.2	x	-8%	5.6	-0.4	u
CN(C)S(=O)(=O)c1ccc(N2CCCC2)c(C(=O)Nc2ccc(Br)cc2F)c1	x	-1	0.1	5.9	x	0.9	0.6	0
CC(=O)c1ccccc1NC(=O)Cn1c(=O)cnc2ccccc21	-6	-1	2.7	-1.1	x	2.2	0.1	-12
O=C(c1ccc(CNS(=O)(=O)c2ccc(Br)cc2)cc1)N1CCCC1	-9	-2	-2.1	2.9	-2%	0.1	1.3	3
CC(C)NC(=O)CSc1nnc(-c2ccc3ncccc3c2)n1C	-8	-7	-4.6	-2.5	16%	u	-0.5	1
CC(C)N(Cc1nnc(-c2ccc(Cl)cc2)o1)C(=O)C1=COCCO1	1	2	-1.6	1.2	2%	-0.1	-0.6	6
O=C(N/N=C\c1ccc(Cl)s1)C1COc2ccccc2O1 (stereo not given)	-3	-9	5.0	-1.1	-3%	4.6	0.4	-9
N#Cc1ccc(C23CC4(C2)[C@H](CN(Cc2ccc(-c5ccccc5)cc2)[C@@H]4c2ccccc2)C3c2ccc(Cl)nc2)cc1 (stereo not given in full)	3	-6	2.1	x	-5%	-4.5	-1.8	-2
N#Cc1cn(CC(=O)NCCc2c[nH]c3ccccc23)c2ccccc12	-1	-6	-2.5	x	-8%	-3.7	0.1	2
Cc1ccc(NC(=O)COC(=O)COc2ccc(Cl)cc2)c([N+](=O)[O-])c1	2	3	-1.9	2.1	-1%	1.9	-0.9	0
O=C(CNC(=O)c1cccs1)NCC(=O)OCc1ccc(Cl)cc1	-6	-25	-3.4	x	-2%	0.6	-0.6	4
CC1=NN(C(=O)CCc2ccccc2O)C(O)(C(F)(F)F)C1 (stereo not given)	-7	-4	-1.8	-6.9	x	-0.2	0.7	-1
CCN1CCN(C(=O)c2cc3c(=O)n(C)c4ccccc4c3n2C)CC1	0	2	-0.7	-1.0	0%	4.5	-1.5	13

An excerpt of these results, with values under each structure:
Each structure is followed by: Beta cell apopt | T cruzi repl | LANA-H2B inh | AF4-AF9 inh | Vif TR-FRET | RanGTP-Imp inh | Bfl-1 A1 inh | Calb FLC
CN(Cc1ccc(-n2cccn2)cc1)Cc1nc(-c2cnccn2)no1
→ 1 | -15 | -1.7 | 0.9 | -11% | 3.0 | 1.3 | u
COc1ccc(OC)c(S(=O)(=O)NCCOC23CC4CC(CC(C4)C2)C3)c1
→ 0 | 20 | 0.5 | 9.3 | -3% | 3.7 | 1.0 | 2
COc1cc(OC)cc(C(=O)NC(=S)NNC(=O)c2cnccn2)c1
→ 85* | 36 | -2.6 | -8.1 | x | -0.8 | 0.0 | -3
COc1ccc(N(CC(=O)Nc2cccc3ccccc23)S(C)(=O)=O)c(OC)c1
→ x | -7 | 4.6 | 1.9 | x | -0.5 | 1.3 | -5
Cc1ccc(NS(=O)(=O)c2ccc(C(=O)OCC(=O)N3CCCCC3)cc2)cc1
→ -12 | x | 0.6 | 0.1 | x | x | -0.2 | x
Cc1csc(=O)n1CC(=O)OCC(=O)NCc1ccccc1
→ -5 | -9 | -3.4 | -1.0 | 3% | 0.2 | 0.0 | -3
COc1ccc(N2CCN(CC(O)COC(c3ccc(F)cc3)c3ccc(F)cc3)CC2)cc1 (stereo not given)
→ -6 | 31 | 2.4 | 27* | -2% | 6.0 | 0.0 | -2
COc1cc(C(=O)NCc2nnc(SCC(=O)N3CCC(C)CC3)o2)cc(OC)c1OC
→ 4 | -7 | 6.6 | x | 23%&-4% | 0.9 | 0.5 | -3
CC(=O)c1ccc(C(=O)N2CCCC(C(=O)c3cc(F)ccc3F)C2)s1 (stereo not given)
→ -2 | -3 | -0.4 | 1.3 | x | 1.6 | 1.9 | 1
COc1ccc(NC(=S)N2CCCC2)c(OC)c1
→ -6 | -5 | 4.3 | 0.3 | 5% | 1.4 | -0.5 | -2
Cc1ccc(SC[C@H](Cc2ccccc2)N2CC[C@@H](NC(=O)OCc3ccccc3)CCC2=O)cc1
→ 6 | 31 | 2.6 | x | x | 0.6 | 0.0 | 1
CC(=O)c1ccc(N2CCN(C(=O)c3n[nH]c4ccccc34)CC2)cc1
→ -1 | 5 | -3.0 | 1.6 | -15% | -4.2 | -0.1 | 9

The list continues:
SMILES	Beta cell apopt	T cruzi repl	LANA-H2B inh	AF4-AF9 inh	Vif TR-FRET	RanGTP-Imp inh	Bfl-1 A1 inh	Calb FLC
CCOc1ccc(S(=O)(=O)N2CCN(C(=O)c3ccc(-n4cncn4)c([N+](=O)[O-])c3)CC2)cc1	-1	20	-3.7	-27	11%	-2.3	0.0	8
Cc1ccc(C)c2c1c1ccccc1n2C	x	-6	0.4	x	-4%	-0.6	-2.2	4
CC(=O)Nc1ccc(S(=O)(=O)N(C)CC(=O)Nc2ccc(Br)cc2F)cc1	5	7	-10	-2.1	2%	2.6	0.7	14
COc1ccc(NC(=O)c2cn(CCC#N)nc2-c2cccs2)cc1	-1	10	0.9	0.6	7%	0.6	0.4	3
CC(OC(=O)/C=C/c1ccccc1)C(=O)Nc1ccc2c(c1)OCCO2 (stereo not given)	0	x	0.2	0.7	2%	x	0.1	x
CCOc1ccc(-c2nnc(N)o2)cc1	0	-12	-1.9	x	-2%	0.6	-0.7	5
Cc1nn(C)c(Oc2cccc(C(F)(F)F)c2)c1C#N	-4	0	1.7	-0.2	1%	u	0.5	-12
CC(NC(=O)COC(=O)c1ccc2c(c1)S(=O)(=O)N=C1CCCCCN12)C12CC3CC(CC(C3)C1)C2 (stereo not given)	47	1	8.5	-22	21%	1.1	7.2*	-15
CCN(CC)S(=O)(=O)c1ccc(OC)c(NC(=O)/C=C/c2ccco2)c1	-5	-9	-0.9	-0.3	x	2.5	-0.4	22
CCN(CC)S(=O)(=O)c1ccc(S(=O)(=O)N(CC(=O)Nc2ccccc2)Cc2ccco2)cc1	8	21	-3.1	x	12%	8.9	-0.6	-5
CCC(CC)NC(=O)CCCSc1nc2ccccc2[nH]1	1	-9	-4.0	-2.1	x	-0.2	0.0	5
